# Compound activity as filed in PubChem BioAssay.
# Mtb MbtI inh: inhibitors of Mycobacterium tuberculosis siderophore enzyme MbtI. purified MbtI enzyme, fluorescence intensity read-out. inhibition, %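 (about 17 µg/mL by stock and volumes)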. 100,000 compounds, 0.89% hits;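 active = above 50% in both replicates, above 80% if mildly self-fluorescent; inactive = the rest, strongly fluorescent compounds included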;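 also: 0% = mean of negative and 100% = mean of positive controls; one replicate is shown; some compounds called inactive have numbers as strong as hits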
# Target sequence (P9WFX0 whole entry, looked up): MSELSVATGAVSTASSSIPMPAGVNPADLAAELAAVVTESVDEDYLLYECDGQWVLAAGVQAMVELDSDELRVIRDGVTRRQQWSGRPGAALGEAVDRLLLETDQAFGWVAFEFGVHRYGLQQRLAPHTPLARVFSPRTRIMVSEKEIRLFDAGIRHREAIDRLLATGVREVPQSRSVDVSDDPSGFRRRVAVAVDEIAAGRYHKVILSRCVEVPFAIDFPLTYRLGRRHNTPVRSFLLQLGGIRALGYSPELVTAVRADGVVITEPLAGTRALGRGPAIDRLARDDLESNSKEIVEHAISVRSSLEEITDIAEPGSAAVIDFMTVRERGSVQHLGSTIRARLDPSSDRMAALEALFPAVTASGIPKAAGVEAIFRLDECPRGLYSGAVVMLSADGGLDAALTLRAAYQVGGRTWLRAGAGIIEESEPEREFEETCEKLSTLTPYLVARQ
# The depositor's hits bear a star. These rows are one share of the data; count on the stated rates, not on these rows.
SMILES,Mtb MbtI inh
CC(C(=O)Nc1ccc(S(N)(=O)=O)cc1)N1C(=O)CCC1=O (stereo not given),-0.1
COc1ccc(-n2nc(C(=O)NCC(=O)Nc3cccc(OC)c3)c3ccccc3c2=O)cc1,-1.5
CCn1c(C)csc1=NC(=O)c1ccccc1,2.2
O=C(CCc1ccccc1)c1ccccc1,-11.9
O=C(CCSc1ccc2ccccc2n1)NCc1ccc2c(c1)OCO2,-7.2
Cc1ccc(C(C(=O)Nc2ccc3c(c2)OCCO3)N(C)C(=O)Cc2cccs2)cc1 (stereo not given),-3.0
CCn1c(C)nc2cc(CO)ccc21,-12.5
CCOc1ccccc1NC(=O)C1CCN(C(=O)c2ccccc2)CC1,-8.6
COC(=O)c1cccc(NC2=CC(C)(C)CC(=O)C2)c1,11.1
O=C(COc1ccc(Cl)cc1)OCc1csc2c1C1CCN2CC1,-8.7
Cc1ccc(OC2CCS(=O)(=O)C2)cc1 (stereo not given),-17.1
CC1=C(C(=O)Nc2ccccn2)C(c2cccc(Cl)c2Cl)C2=C(CCCC2=O)N1 (stereo not given),-10.8
Cc1ccc2[nH]c(=O)c3cc(C(=O)O)sc3c2c1,-59.7
O=c1ccnc(S/C=C/c2ccccc2)[nH]1,15.6
CCC1=Nc2cc(C(=O)O)ccc2Sc2ccccc21,-6.1
CCCc1cc(=O)n(-c2nc3ccccc3s2)[nH]1,24.2
COC(=O)Cn1c(=N)n(Cc2ccccc2)c2ccccc21,-1.2
COc1ccccc1N1CCN(c2ncc(C(=O)Nc3cc(OC)c(OC)c(OC)c3)c3ccccc23)CC1,-3.5
CCOc1cccc(=O)c2c(C)n(Cc3ccccc3)c(C)c12,2.5
CCN(C(=O)c1cnc(N2CCN(c3ncccn3)CC2)c2ccccc12)c1cccc(Cl)c1,37.3
CCCCC(C(=O)O)n1cccc1 (stereo not given),-22.6
COc1ccc(CCNc2ncc3c(n2)CC(c2ccc(C)cc2)CC3=O)cc1 (stereo not given),-8.3
O=C(COc1ccc2oc3c(c2c1)CCCC3)Nc1ccccc1,-5.5
O=C(COc1ccccc1)NCc1ccco1,0.6
Cc1cc(C)c(NS(=O)(=O)c2ccc(NC(=O)c3nc4ncccn4n3)cc2)c(C)c1,5.4
CC1CCCN(C(=O)c2ccc(NC(=O)C(O)(c3ccccc3)c3ccccc3)cc2)C1 (stereo not given),-9.7
O=C1C=C(NCc2ccc3c(c2)OCO3)CC(c2ccccc2)C1 (stereo not given),-7.3
Nc1c(Nc2ccccc2C(=O)O)c2ccccc2oc1=O,-5.1
Cc1cc(=O)[nH]c(SC(C)C)n1,-6.0
CCCOC(=O)COc1cc(C)cc2oc(=O)c3c(c12)CCCC3,3.3
COC(=O)c1ccc(C(=O)OC)c(NC(=O)C(C(C)C)N2C(=O)c3ccccc3C2=O)c1 (stereo not given),-7.4
CCOC(=O)N1CCC(c2cc(=O)n(-c3ccccc3)[nH]2)CC1,-9.1
OCCN1CCN(C2CCN(C3CCCCCC3)CC2)CC1,0.6
OC1(C#CCN2CCCCC2)CCCCC1,-10.1
Cn1c(=O)c2[nH]c(NCc3ccccc3)nc2n(C)c1=O,5.0
O=c1[nH]cnc2scc(C3COc4ccccc4O3)c12 (stereo not given),-12.4
COc1cccc(OCC(=O)Nc2cccc(C#N)c2)c1,-16.6
O=C(Cn1cc(CO)c2ccccc21)Nc1ccccc1,0.2
Cc1ccc(S(=O)(=O)CC2CSc3nc4ccccc4n32)cc1 (stereo not given),-1.1
CCOC(=O)c1nc(-c2ccc3c(c2)OCO3)[nH]c1C,-23.2
CC(N)Cc1c[nH]c2cc3c(cc12)OCCO3 (stereo not given),-23.4
COc1cc(C2CC(=O)C=C(O)C2)cc(OC)c1OC (stereo not given),-8.2
O=C1c2ccccc2C(=O)N1c1cccnc1,-12.2
CN(C)c1ccc(C2Nc3ccc4ncccc4c3C3=C2C(=O)CCC3)cc1 (stereo not given),-6.5
CCC(Sc1nnc2c(n1)[nH]c1ccccc12)C(=O)Nc1ccc(S(N)(=O)=O)cc1 (stereo not given),-8.0
COc1cc(CN2CCC(N3CCN(C)CC3)CC2)cc(OC)c1OC,-14.3
CCOc1cc(-c2noc(N)c2C(=O)OC)cc(OCC)c1OCC,3.4
Cc1cc(OCCN2CCOCC2)ccc1C(C)C,-3.2
O=C(NCCCn1ccnc1)c1ccncc1,1.2
COc1ccc(CCNC2=CC(=O)CC(C)(C)C2)cc1OC,-8.1
O=C(O)c1[nH]nc2c1COc1ccccc1-2,-38.8
CC[N+](CC)=c1ccc2ccc(O)cc2o1,-9.6
CNc1nnc(Cl)c2ccccc12,-26.0
COc1ccccc1C(=O)NCC(=O)N(C)Cc1cccc(F)c1,54.1
Cc1cc(C)n(-c2ccccc2O)n1,-0.8
Clc1nc(SCc2ccccc2)nc2ccccc12,52.3
COc1cc(Cl)ccc1S(=O)(=O)n1nnc2ccccc21,-7.6
CC(/C=N/O)Cc1ccc2c(c1)OCO2 (stereo not given),2.7
CCOc1ccc(C(=O)N2CCSC2=S)cc1,11.4
Cc1cccc(NC(=O)Cn2cnc3ccccc3c2=O)c1,-8.8
# (further entries)
SMILES,Mtb MbtI inh
CN(C(=O)c1coc(=O)c2ccccc12)c1ccc(F)cc1,-4.4
CC1=CC(=O)N(c2ccccn2)C1c1ccc(Cl)cc1 (stereo not given),-17.5
O=C(NCC1CCCO1)c1ccc(F)c2ccccc12 (stereo not given),-9.5
CC(C)(C)C1(O)CC(c2ccccc2)=NO1 (stereo not given),-11.4
O=C(CC(c1ccccc1)c1cc(Cl)ccc1O)NCCCN1CCOCC1 (stereo not given),-5.3
Nc1ccc2c(c1)C(=O)N(CCCC(=O)O)C2=O,-3.2
COc1ccc(NC(=O)C(c2ccccn2)N(C(C)=O)c2ccc(C)cc2)cc1 (stereo not given),-12.7
CC(C)Oc1ccc(CSC(=N)N)cc1,-8.8
O=C(NCC1(c2ccccc2)CCOCC1)c1cccc(Cl)c1,-1.4
COc1ccc(C(N)CCc2ccco2)cc1 (stereo not given),-8.9
COc1cc(/C=C\C(C)=N\O)ccc1OCc1ccccc1,-5.7
O=C(OCn1cncn1)c1ccc(Cl)cc1Cl,-6.9
Cc1ccc(N=c2scc3n2CCC3)cc1,-3.5
COc1cccc(C2OC(=O)c3ccccc3N2C(C)=O)c1OC(C)=O (stereo not given),-23.4
Cc1cc2ncn(C3CC(=O)N(c4ccccc4Cl)C3=O)c2cc1C (stereo not given),1.0

# Reprinted from the part before: four entries; new compounds follow.
SMILES,Mtb MbtI inh
O=C(OCn1cncn1)c1ccc(Cl)cc1Cl,-6.9
Cc1ccc(N=c2scc3n2CCC3)cc1,-3.5
COc1cccc(C2OC(=O)c3ccccc3N2C(C)=O)c1OC(C)=O (stereo not given),-23.4
Cc1cc2ncn(C3CC(=O)N(c4ccccc4Cl)C3=O)c2cc1C (stereo not given),1.0
O=c1[nH]nc(Cc2ccccc2)c2ccccc12,-12.1
Cc1ccc(S(=O)(=O)N2CCCC2C(=O)n2nc(C)cc2C)cc1 (stereo not given),-18.0
CN(C(=O)c1ccco1)C1CC(C)(C)N(C)C(C)(C)C1,-15.8
COC(=O)NCCc1ccc(OC)cc1,2.8
Cc1ccc(OCCN2C(=O)OC(C)(C)C2(C)O)cc1 (stereo not given),-11.1
CC1CC(C)(C)NC(=S)N1CCCC(=O)N1CCN(c2ccccc2)CC1 (stereo not given),-2.2
Cc1ccccc1CNCC1CCC(C(=O)O)CC1 (stereo not given),-8.2
Cn1c(=O)c2c(ncn2CC(=O)Nc2ccc(C#N)c(Cl)c2)n(C)c1=O,-1.7
COCCN1C(=O)c2ccccc2C(C(=O)Nc2ccc(C(C)C)cc2)C1c1ccc(F)cc1 (stereo not given),-12.2
CC1CN(C2CCN(Cc3ccccn3)CC2)CC(C)O1 (stereo not given),-8.9
CC1CCC(C(=O)NC(C(=O)O)C(C)C)CC1 (stereo not given),-6.5
COC(=O)CCC(=O)Nc1ccc(F)cc1,-5.4
c1csc(-c2nc3sc(-c4cccs4)nc3s2)c1,-11.4
O=c1cnc(-c2ccccc2)c(-c2ccccc2)[nH]1,3.1
CNc1csc(C)c(C)c1=O,4.2

# As a working copy, some entries already given.
SMILES,Mtb MbtI inh
Cn1c(=O)c2c(ncn2CC(=O)Nc2ccc(C#N)c(Cl)c2)n(C)c1=O,-1.7
COCCN1C(=O)c2ccccc2C(C(=O)Nc2ccc(C(C)C)cc2)C1c1ccc(F)cc1 (stereo not given),-12.2
CC1CN(C2CCN(Cc3ccccn3)CC2)CC(C)O1 (stereo not given),-8.9
CC1CCC(C(=O)NC(C(=O)O)C(C)C)CC1 (stereo not given),-6.5
COC(=O)CCC(=O)Nc1ccc(F)cc1,-5.4
c1csc(-c2nc3sc(-c4cccs4)nc3s2)c1,-11.4
O=c1cnc(-c2ccccc2)c(-c2ccccc2)[nH]1,3.1
CNc1csc(C)c(C)c1=O,4.2

# (further entries)
SMILES,Mtb MbtI inh
COc1cc(OC)cc(C(=O)N2CCN(C)CC2)c1,0.1
CCCNC(=O)c1csc2c1CCCCC2,-7.2
O=C(NCc1ccc2c(c1)OCO2)c1ccc(Cn2cc(Cl)cn2)cc1,-3.8
CCc1c(O)nc2n(c1=O)CCS2,0.8
Cc1[nH]c(=O)n(C(C)(C)C)c(=O)c1Cl,-10.2
CCOC(=O)c1ccccc1S(N)(=O)=O,-2.4
CC(C)(C)c1cc(N)n(-c2ccc(C(=O)O)cc2)n1,-5.9
O=C(CCc1ccccc1)N1CCC(c2ccccc2)C1 (stereo not given),-0.6
O=c1c2ccccc2cnn1CCOc1ccccc1,-5.7
COc1cnc2c(n1)c(=O)n(C)c(=O)n2C,95.5
Cc1nc(SCN2C(=O)c3ccccc3C2=O)n[nH]1,-11.4
CC1CCCCC1n1cnc2cc(C(=O)O)ccc21 (stereo not given),-11.4
O=C(CCCN1C(=O)c2ccccc2C1=O)N1CCCCCC1,-5.5
COC(=O)c1nnn(-c2nc(N3CCCCC3)nc(N3CCCCC3)n2)c1C,0.0
CCC1CN(C(=O)CCC(=O)NCc2ccc(F)cc2)c2cc(Cl)ccc2O1 (stereo not given),-14.6
CCCC(=O)N1CC(=O)Nc2ccc(C)cc2C1c1ccccc1 (stereo not given),-10.2
N#Cc1c(N2CCCCCC2)ncc2cc3ccccc3nc12,-14.2
CCc1ccc(NC(=O)c2cnc(Nc3ccc(OC)cc3)c3ccccc23)cc1,1.1
O=C(NCC1CCNCC1)c1ccc(/C=N/O)nc1,-4.1
CC(C)n1nnc(CC(N)=O)n1,-5.4
COc1ccc(OCC(Cn2cnc3ccccc32)OC(C)=O)cc1 (stereo not given),-13.4
CCOC(C(=O)O)(c1ccccc1)c1ccccc1,1.6
CC(CN1C(C)CCCC1C)OC(=O)c1ccc(F)cc1 (stereo not given),-18.1
Cc1ccc2nc(CCc3nc4ccc(C)cc4[nH]3)[nH]c2c1,-4.8
CCN(c1cccc(C)c1)C(C(=O)NC1CCCC1)c1ccccc1 (stereo not given),-8.7
COC(=O)C1=C(C)n2nnnc2NC1c1ccc(Cl)cc1 (stereo not given),-8.1
Cn1c(NCc2ccccc2)cc(=O)n(C)c1=O,17.0
N/C(=N\O)c1cccc(C(=O)O)c1,-6.0
Nc1ccc(C(=O)NCC2CCCO2)cc1 (stereo not given),6.4
CCOC(=O)C(C#N)C(c1ccc2c(c1)OCO2)c1ccccc1OC (stereo not given),-7.8

# Structural class: the entries above containing a tert-butyl group
SMILES,Mtb MbtI inh
CC(C)(C)C1(O)CC(c2ccccc2)=NO1 (stereo not given),-11.4
Cc1[nH]c(=O)n(C(C)(C)C)c(=O)c1Cl,-10.2
CC(C)(C)c1cc(N)n(-c2ccc(C(=O)O)cc2)n1,-5.9

# Continuation:
SMILES,Mtb MbtI inh
c1ccc(CNc2ncnc3ccccc23)cc1,-7.1
Cc1cccc(Cn2c(=O)[nH]c3ccccc32)c1,-10.5
O=C(NCc1cccs1)c1cccnc1C(=O)O,-5.3
S=c1[nH]nc(-c2ccc(Br)cc2)o1,32.9
Cc1cc(C)c(C(=O)O)[nH]1,-3.0
O=c1[nH]c(-c2ccc(F)cc2)nc2c1sc(=S)n2-c1ccccc1,-3.2
O=S1(=O)C=CC(c2ccccc2)C1 (stereo not given),-5.5
CCCOc1ccccc1NC(=O)c1ccc(N)cc1,1.4
O=C(O)COc1ccc2occ(C(=O)c3cccs3)c2c1,2.0
COc1ccccc1N1CCN(Cc2cc(Cl)c(O)c3ncccc23)CC1,-2.6
CC1(C)CC(OC(=O)CCC(=O)OC2CC(C)(C)NC(C)(C)C2)CC(C)(C)N1,-8.4
O=C(O)CC(C(=O)O)C(O)c1ccccc1 (stereo not given),-12.5
NC(=O)C1CCN(C(=O)c2n[nH]c(=O)c3ccccc23)CC1,6.3
Cc1ccc(C(=O)OC(C)CN2CCCC2)cc1 (stereo not given),-15.8
COc1cccc(OC)c1C(=O)N1CCCCC1,-4.9
COC(=O)c1ccccc1NC(=O)CSc1nc2c(c(=O)[nH]1)CCCC2,0.1
COC(=O)C(C)OC(=O)c1ccc(Cl)c(Cl)c1 (stereo not given),-2.6
O=C(Nc1cccnc1)C(=O)c1c(O)[nH]c2ccccc12,4.1
CC(C)CC(C(=O)O)N1C(=O)c2cc(Cl)c(Cl)cc2C1=O (stereo not given),-3.1
Oc1cccc2ccc(N3CCOCC3)nc12,-19.9
CC(C)C(O)(CC#CCN1CCCC1)c1ccccc1 (stereo not given),-4.0
CC(=O)N(CCC(c1ccccc1)C1CCOC(C)(C)C1)Cc1ccccc1 (stereo not given),-4.5
O=C1CCC(C(=O)NCCCn2ccnc2)N1 (stereo not given),-2.9
CC12CCC(C(=O)O)(C/C1=N\O)C2(C)C (stereo not given),-5.6
COc1ccc(C2C(C(=O)Nc3cc(C)c(Cl)cc3OC)c3ccccc3C(=O)N2C)cc1 (stereo not given),-2.2
COC(=O)C(CC(C)C)NC(=O)c1cccs1 (stereo not given),-11.3
CCOC(=O)C(Nc1cccc(F)c1)c1ccccc1 (stereo not given),-6.7
O=C(CNC(=O)c1ccccc1)OC1CCCCC1,-9.1
Nc1cccc2c1C(=O)N(c1ccccc1)C2=O,-5.2
COc1ccc(C2C(C(=O)NCCC3=CCCCC3)c3ccccc3C(=O)N2C)cc1 (stereo not given),-1.6
Cc1ccc(C)c(Cn2cccc2C#N)c1,-12.1
